Ecoli growth – E. coli growth inhibition | Escherichia coli growth, OD600, 23 h; active compounds read low | OD600 absorbance (test concentration not listed) | 0.21% of 330,000 active;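 active = OD600 absorbance below the run mean of sample wells minus 3.6 SD, in any replicate, cut at about 0.56 in these data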;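 note: stock transfer was 300 nL into about 60 µL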
Starred values were filed as active, the others as inactive; & = joins results of further samples. A portion of the library (hit frequency here may not be typical).

compound	Ecoli growth
CCOC(=O)C1C2COc3ccccc3C2N2C(=O)c3ccccc3NC(=O)[C@@]12C (some centres not stated)	0.623
CC[C@@]12C(=O)N(c3ccc(C)cc3)C(=O)N1C(c1ccc(Br)cc1)C1C(=O)N(C(C)(C)C)C(=O)C12 (some centres not stated)	0.684
FC(F)(F)c1cc(CCN2CCNCC2Cc2ccccc2)cc(C(F)(F)F)c1 (configuration not stated)	0.625
COC(=O)C=CC1=CN(Cc2ccccc2)CCC1=O	0.661
COCCN1C(=O)NC(c2ccco2)C(C(=O)OC)=C1C (configuration not stated)	0.704
CCOC(=O)C=CC(=O)OCC(=O)Nc1ccc(Cl)cn1	0.675
COC(=O)[C@@]1(Cc2ccc(OC)cc2)C2C(=CC(=O)C2CC(=O)C(=O)N2CCCC2)CN1C(=O)c1ccccc1 (some centres not stated)	0.685
CC(C(=O)N1CCN(C(=O)OC(C)(C)C)CC1)n1cc(CCCN=C(NC(=O)OC(C)(C)C)NC(=O)OC(C)(C)C)nn1 (configuration not stated)	0.682
CC1(C)SC2C(NC(=O)C(N)c3ccccc3)C(=O)N2C1C(=O)OC1OC(=O)c2ccccc21 (configuration not stated)	0.68
CC1CN(S(=O)(=O)c2ccc3c(c2)OCCO3)CCN1S(=O)(=O)c1c(F)cccc1F (configuration not stated)	0.695
O=C1CCN(CCc2ccccc2)CCN1C(CO)Cc1ccccc1 (configuration not stated)	0.658
CC1CN(C(C)CO)C(=O)c2cccc(NC(=O)Nc3ccccc3)c2OC1CN(C)S(C)(=O)=O (configuration not stated)	0.679
CN(C)C=Cc1onc(-c2c(F)cccc2Cl)c1C#N	0.733
CC(=O)OC1C[C@@]2(C)C(CC(O)C3[C@@]4(C)CCC(O)C(C)C4CC[C@@]32C)C1=C(CCC=C(C)C)C(=O)O (some centres not stated)	0.631&0.638
O=C1CCC(O)CCN1C(CSc1ccccc1)Cc1ccccc1 (configuration not stated)	0.714
O=C(COCc1ccccc1)NC(Cc1ccc(O)cc1)C(=O)O (configuration not stated)	0.678
O=C1C=C(c2ccc(Cl)c(C(F)(F)F)c2)CC(c2ccc(F)cc2)C1 (configuration not stated)	0.673
NC(=O)C1CC2(CC(c3cccc(NC(=O)C4CCC(=O)N4)c3)=NO2)CN1C(=O)COc1ccc(Cl)cc1 (configuration not stated)	0.65
Cc1ccc(S(=O)(=O)N2C(c3cccs3)CC=C(C(=O)O)C2c2cccc(Cl)c2)cc1 (configuration not stated)	0.685
COC(=O)[C@]1(C)NC(c2ccc(SC3CCCCC3)cc2)C2C(=O)N(C)C(=O)C21 (some centres not stated)	0.637
Cc1ccc(C=CC(=O)Nc2ccc(O)c3c(=O)cc(-c4ccccc4Cl)oc23)cc1	0.619
C=C(C)C(=O)Nc1cccc(C2=NOC3(C2)CC(C(N)=O)N(C(=O)C=CCC)C3)c1 (configuration not stated)	0.723
CCCCCCCN1CCC(=O)N(C(CO)c2ccccc2)CC1 (configuration not stated)	0.673
CC1CN(C(C)CO)C(=O)c2cccc(NC(=O)C3CCCCC3)c2OC1CN(C)C(=O)NC1CCCCC1 (configuration not stated)	0.651
C[C@@]12CCC=CC1C(c1ccc3ccccc3c1C=Cc1ccccc1)N(Cc1ccccc1)C2=O (some centres not stated)	0.764
C[C@@]12C(=O)N(c3cccc(Br)c3)C(=O)N1C(c1ccc(Cl)cc1)C1C(=O)N(C3CCCCC3)C(=O)C12 (some centres not stated)	0.722
Cc1ccc2c(c1)C1C(CO2)C(c2ccccc2)[C@]2(C)C(=O)Nc3cc(Cl)ccc3C(=O)N12 (some centres not stated)	0.671
COC(=O)C=Cc1ccccc1S(=O)(=O)N(Cc1ccccc1)Cc1ccco1	0.657
COc1ccc(-c2ccc(F)cc2)cc1C1C2C=CCC(C)C2C(=O)N1Cc1ccccc1 (configuration not stated)	0.704
Cc1ccc(S(=O)(=O)N2C(c3ccc4c(c3)OCO4)CC=C(C(=O)O)C2c2ccc(Cl)cc2)cc1 (configuration not stated)	0.72
C=CCN1C=C2C(=O)C(C)(OC(=O)c3cnc4ccccc4n3)C(=O)C=C2C=C1C=CCOC (configuration not stated)	0.69
c1ccc(C2C3CN(Cc4cccnc4)C(c4ccccc4)C34CC2(c2ccccc2)C4)cc1 (configuration not stated)	0.675
CC(CN1C2=NCC(C)N2CC1Cc1ccc(O)cc1)NC(=O)CCC1CCCCC1 (configuration not stated)	0.708
CN1CCC(=O)N(C(CSc2ccccc2)c2ccccc2)CC1 (configuration not stated)	0.695
CCCCN1C(N)=NCC1Cc1ccc(O)cc1 (configuration not stated)	0.661&0.671
CCCCCC1CN(Cc2ccccc2)C(=O)C1CC(=O)NCc1ccc(OC)cc1 (configuration not stated)	0.699
CC(C)C(NC(=O)NCCc1ccc(F)cc1)C(=O)O (configuration not stated)	0.705
C=Cc1ccc(C2=CC(=O)CC(c3ccc(OC)cc3)C2)cc1 (configuration not stated)	0.663
CC(C)(C)OC(=O)CC1CC=CCC(CC(=O)NC(CO)Cc2ccccc2)C(=O)NC(Cc2c[nH]c3ccccc23)COC1=O (configuration not stated)	0.698
COC(=O)C1C2SC(C)(C)C(C(=O)OC)N2C(=O)N1Cc1nc2ccccc2s1 (configuration not stated)	0.667
Cc1ccc(S(=O)(=O)N2C(c3cccc(C)c3)CC=C(C(=O)O)C2c2cccc(Cl)c2)cc1 (configuration not stated)	0.634
O=C1CC2c3c(cccc3CN1Cc1ccc(F)cc1)CC(O)C2O (configuration not stated)	0.719
CCCC(CNC)NCC(Cc1ccccc1)NCCCCc1ccccc1 (configuration not stated)	0.64
Cc1noc(C)c1NC(=O)N(C)CC1Oc2ccc(NS(=O)(=O)c3cn(C)cn3)cc2C(=O)N(C(C)CO)CC1C (configuration not stated)	0.678
CC1CN(C(C)CO)C(=O)c2cc(NS(C)(=O)=O)ccc2OC1CN(C)Cc1ccc(C(=O)O)cc1 (configuration not stated)	0.694
COc1ccc(S(=O)(=O)Nc2cccc3c2OC(CN(C)Cc2ccncc2)C(C)CN(C(C)CO)C3=O)cc1 (configuration not stated)	0.634
COc1ccc(C2C3C(=O)N(C(C)(C)C)C(=O)C3[C@]3(C)C(=O)N(c4ccccc4)C(=O)N23)cc1 (some centres not stated)	0.666
C#CCOCCOCCOCCNc1nc(N2CCN(C(=O)CCCCCCCCCCNC(=O)C(CCCCN)n3cc(CCO)nn3)CC2)nc(N2CCN(C(=O)CCCCCCCCCCNC(=O)C(CCCCN)n3cc(CCCC(=O)O)nn3)CC2)n1 (configuration not stated)	0.608
CC1CN(C(C)CO)C(=O)c2cccc(NS(=O)(=O)c3cn(C)cn3)c2OC1CN(C)CC1CCCCC1 (configuration not stated)	0.679
CCOC1OC(C(N)=O)=CC(c2coc3ccccc3c2=O)C1CCCO (configuration not stated)	0.664&0.671
CC(C)CC(NC(=O)c1nc[nH]c1C(=O)N(C)Cc1ccccc1)C(=O)OC(C)(C)C (configuration not stated)	0.683
COC(=O)c1ccc(C23CC4(C2)C(CN(Cc2ccc(C(F)(F)F)cc2)C4c2ccccc2)C3c2ccc(C(F)(F)F)cc2)cc1 (configuration not stated)	0.722
O=C1C2C(C=Cc3ccccc3)N3C(=O)CN(Cc4ccccn4)C(=O)[C@@]3(Cc3ccccc3)C2C(=O)N1c1ccccc1 (some centres not stated)	0.715
COc1ccc(C2C(C(=O)OC(C)(C)C)N3N=Cc4ccccc4C3C23C(=O)c2ccccc2C3=O)c(OC)c1 (configuration not stated)	0.677
CCCCCC1CN(C2CCCCC2)C(=O)C1CC(=O)NCc1ccccc1 (configuration not stated)	0.666
C=CCCN(C(C)C(=O)OC)S(=O)(=O)c1ccccc1Br (configuration not stated)	0.696
CCCCC1CC1C(NC(=O)c1ccco1)c1ccc(Cl)cc1 (configuration not stated)	0.665
NCC1OC(C23CC4CC(CC(C4)C2)C3)Cc2c1ccc(O)c2O (configuration not stated)	0.551
Cc1ccc(S(=O)(=O)N2C(c3cccs3)CC=C(C(=O)O)C2c2ccccc2)cc1 (configuration not stated)	0.671
O=C1CCC(O)CCN1CCC(Sc1ccccc1)c1ccccc1 (configuration not stated)	0.668

(further entries)
mol	Ecoli growth
C=CCOC(=O)C(=O)C=Cc1coc2ccccc2c1=O	0.683
O=C(C(=C([O-])c1ccccc1)[n+]1ccc2ccccc2c1)c1ccccc1	0.7
O=C1C=C(c2cc(Cl)cc(Cl)c2)CC(c2ccc3c(c2)OCO3)C1 (configuration not stated)	0.758
O=C(CCc1ccc(O)cc1)c1c(O)cc(O)cc1OC1OC(CO)C(O)C(O)C1O (configuration not stated)	0.68
CCCCCCCN1CC=CC(c2ccc(OC)cc2)N(Cc2ccc(F)cc2)C(=O)C1Cc1ccccc1 (configuration not stated)	0.699
CCC(=O)OC1(C(=O)CCl)C(C)CC2C3CCC4=CC(=O)C=C[C@]4(C)[C@@]3(F)C(O)C[C@@]21C (some centres not stated)	0.706
O=C(COC(=O)C=Cc1cccc(C(F)(F)F)c1)NC(c1ccccc1)c1ccccc1	0.77
CS(=O)(=O)N1c2ccccc2[C@]2(Br)CC3C(=O)NC(Cc4ccccc4)C(=O)N3C12 (some centres not stated)	0.727
O=C1NC(=O)C(=Cc2ccc(O)cc2)S1	0.667
Oc1ccc(CC2CNCCN2CCc2cc(C(F)(F)F)cc(C(F)(F)F)c2)cc1 (configuration not stated)	0.645&0.627
CCOC(=O)c1ccc(N2C(=O)C(c3ccccc3)C2c2ccccc2)cc1 (configuration not stated)	0.707
Cc1ccc(CN2CC(=O)N3C4c5ccccc5OCC4C(c4ccccc4)[C@]3(C)C2=O)cc1 (some centres not stated)	0.738

3 structures out of the list, arranged by SMILES length, ascending.
mol	Ecoli growth
CCCC(CNC)NCC(Cc1ccccc1)NCCCCc1ccccc1 (configuration not stated)	0.64
CC(C)CC(NC(=O)c1nc[nH]c1C(=O)N(C)Cc1ccccc1)C(=O)OC(C)(C)C (configuration not stated)	0.683
O=C1C2C(C=Cc3ccccc3)N3C(=O)CN(Cc4ccccn4)C(=O)[C@@]3(Cc3ccccc3)C2C(=O)N1c1ccccc1 (some centres not stated)	0.715

(cont.)
mol	Ecoli growth
Cc1ccc(S(=O)(=O)N2C(c3ccc(Cl)c(Cl)c3)CC=C(C(=O)O)C2c2ccccc2)cc1 (configuration not stated)	0.694
O=C1CCCC2Cc3[nH]c4c(Cl)ccc(Cl)c4c3C3CCN1C23 (configuration not stated)	0.645
CC1=CC(C)C(c2ccccc2)OC1=O (configuration not stated)	0.628
CC=Cc1ccc(OC(C)=O)c(OC)c1	0.699
CC1(C)CC1C(=O)NC(=CCCCCSCC(N)C(=O)O)C(=O)O (configuration not stated)	0.654
CON=CNC(=O)N1OCC2COc3ccc4ccccc4c3C21 (configuration not stated)	0.688
COc1cc(CCCN2C(=O)C(=O)NCC2CC2CCCCC2)cc(OC)c1OC (configuration not stated)	0.71
CC1(C)OC2CC3C4CC(F)C5=CC(=O)CC[C@]5(C)C4C(O)C[C@]3(C)[C@]2(C(=O)CO)O1 (some centres not stated)	0.71
O=C(CNC(=O)c1ccccc1O)NN=Cc1cc(Br)ccc1OC(=O)C=Cc1ccco1	0.761
CC=CC(=O)Nc1cccc(C2=NOC3(C2)CC(C(N)=O)N(C(=O)CCCCC)C3)c1 (configuration not stated)	0.585
NC(=O)CNC(=O)C1CC2(CC(c3cccc([N+](=O)[O-])c3)=NO2)CN1C(=O)c1ccccc1 (configuration not stated)	0.673
CCN1C(=O)NC(CCc2ccccc2)C(C(C)=O)=C1C (configuration not stated)	0.705

Retrieved by compound from above:
mol	Ecoli growth
CN(C)C=Cc1onc(-c2c(F)cccc2Cl)c1C#N	0.733
O=C(CNC(=O)c1ccccc1O)NN=Cc1cc(Br)ccc1OC(=O)C=Cc1ccco1	0.761
CC[C@@]12C(=O)N(c3ccc(C)cc3)C(=O)N1C(c1ccc(Br)cc1)C1C(=O)N(C(C)(C)C)C(=O)C12 (some centres not stated)	0.684
C=Cc1ccc(C2=CC(=O)CC(c3ccc(OC)cc3)C2)cc1 (configuration not stated)	0.663
COC(=O)C=Cc1ccccc1S(=O)(=O)N(Cc1ccccc1)Cc1ccco1	0.657

Further structures follow:
mol	Ecoli growth
O=C(C1=CC(c2ccc(Br)cc2)CC(OCCCCO)O1)N1CCOCC1 (configuration not stated)	0.666&0.674
CC(C)(C)N1C(=O)C2C(c3ccc(Br)cc3)N3C(=O)N(c4cccc(Cl)c4)C(=O)[C@@]3(Cc3ccccc3)C2C1=O (some centres not stated)	0.725
CSC(=C[N+](=O)[O-])Nc1ccccc1	0.657
COc1ccccc1NC(=S)N1CCN(CC=Cc2ccccc2)CC1	0.702
CCOC(=O)C1C2COc3ccc(OC)cc3C2N2C(=O)CN(Cc3ccc(C)cc3)C(=O)[C@@]12C (some centres not stated)	0.656
CC1CCCC(=CNc2ccc(C(=O)O)cc2)C1=O (configuration not stated)	0.725
CC(C)(O)C1CC[C@@](C)(C2CC[C@]3(C)C2C(O)CC2[C@@]4(C)CCC(O)C(C)(C)C4C(OC4OC(CO)C(O)C(O)C4OC4OC(CO)C(O)C(O)C4O)C[C@]23C)O1 (some centres not stated)	0.686
CCOC(=O)C(=CC=C1Sc2ccccc2N1CC)C(C)=O	0.676
COC(=O)c1ccc(C23CC4(C2)C(CN(CC2CCCCC2)C4c2ccccc2)C3c2ccc(C(F)(F)F)cc2)cc1 (configuration not stated)	0.707
NCCCCC(N)c1cn(C(CCC(=O)O)C(=O)N2CCNCC2)nn1 (configuration not stated)	0.689
COC(=O)C1=C(C)N(Cc2ccccc2)C(=O)NC1c1ccccc1 (configuration not stated)	0.686
CCN1C(=O)C2C(c3ccc(-c4ccc(Cl)c(Cl)c4)cc3)N[C@@](C)(C(=O)OC)C2C1=O (some centres not stated)	0.722

Part of the list above, field by field:
CC1(C)CC1C(=O)NC(=CCCCCSCC(N)C(=O)O)C(=O)O (configuration not stated)
- Ecoli growth = 0.654

CON=CNC(=O)N1OCC2COc3ccc4ccccc4c3C21 (configuration not stated)
- Ecoli growth = 0.688

COc1cc(CCCN2C(=O)C(=O)NCC2CC2CCCCC2)cc(OC)c1OC (configuration not stated)
- Ecoli growth = 0.71

Screening results: PubChem, ICCB-Longwood Screening Facility, Harvard Medical School
